Mtb hypoxia rep: inhibitors of hypoxia-regulated fluorescent reporter in Mycobacterium tuberculosis; AID 1159583; M. tuberculosis hypoxia-regulated fluorescent reporter, fluorescence; actives 0.1% (n = 300,000); fluorescence inhibition, % (test concentration not listed);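 active = 35 to 45% if threefold the growth effect, above 45% if 1.5-fold the growth effect; inactive = the rest, general growth blockers included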;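 note: wells of about 50 µL received 100 nL stock; 0% = vehicle wells and 100% = reference inhibitor wells; whole bacteria with a GFP reporter of the hypoxia response; strong numbers were not always called active; many hits fall short of the cut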
BJeLR viability: kills HRASV12-expressing BJeLR cells | BJeLR (HRASV12) viability, CellTiter-Glo ATP luminescence, 48 h; reference of the scale not given here | inhibition, % (test concentration not listed) | actives 0.17% (n = 300,000) | AID 1554;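 active = replicate mean above 50%; inconclusive = above 50% but judged a plate artefact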;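 note: 50 nL library stock added to about 25 µL; numbers are from one replicate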
Autofluor counter: compound fluorescence in toxin protease inhibitor counterscreen; compound autofluorescence counterscreen, microsphere flow cytometry; hits give high values; actives 3.1% (n = 360,000); fluorescence intensity (test concentration not listed);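 active = at least 3 SD above the mean of all compounds, about 16000 in these data; inconclusive = too few beads counted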;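 note: 100 nL of 1 mM stock went into each well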
ugtP null kill: growth inhibition of S. aureus ugtP deletion strain | S. aureus RN4220 ugtP deletion, OD600 growth, 16 h; some inactives read as strong as hits | growth inhibition, % (test concentration not listed) | actives 0.54% (n = 330,000) | AID 1259309;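 active = z-score under -3 and OD600 up to 0.15 on both plates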;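 note: plate controls were untreated wells for no effect and antibiotic for full effect; wells of about 80 µL received 100 nL stock; the first replicate is given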
RN4220 kill: kills Staphylococcus aureus RN4220. S. aureus RN4220 growth, OD600, 16 h. inhibition, % (test concentration not listed). actives 0.33% (n = 330,000). AID 1259311;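 active = z-score of -3 or lower and OD600 up to 0.18 on both plates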;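 note: plate controls were untreated cells for no effect and reference antibiotic for full effect; stock transfer was 100 nL into about 80 µL; one replicate is shown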
PrP UTR inh: inhibition of PrP 5' UTR reporter expression; cell-based PrP 5' UTR mRNA reporter, plate reader; inhibition, % (no concentration beside the values); actives 0.35% (n = 340,000); AID 488862;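 active = every replicate at 50% or more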;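 note: 0 = median of the neutral control wells; tested in H4 reporter cells; numbers are from one replicate; inactives centre near -14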
Mtb hypoxia rep growth: further read-out of Mtb hypoxia rep, marked with its call; growth inhibition, %; measured here: M. tuberculosis growth (absorbance);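 0% = vehicle and 100% = reference antibiotic; read after six days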
* = called active by the depositor; ? = inconclusive; . = not tested or not shown.

SMILES	Mtb hypoxia rep	Mtb hypoxia rep growth	BJeLR viability	Autofluor counter	ugtP null kill	RN4220 kill	PrP UTR inh
O=C(C(Cc1ccc(Cl)cc1)NS(=O)(=O)c1ccccc1)N1CC[C@@]2(O)CCCC[C@H]2C1 (stereo partly specified)	.	.	4	2857	.	.	-19
CC1CCCC(C)N1C(=O)CN1C(=O)c2ccccc2S1(=O)=O (stereo unspecified)	-6	5	.	?	-7	-2.7	-17
COCCN(C(=O)COC(=O)c1ccc(C=O)cc1)c1c(N)n(Cc2ccccc2)c(=O)[nH]c1=O	8	-2	0	5366	6	4.0	-38
O=C(COc1ccccc1Cl)c1ccc2c(c1)CCCC2	4	12	-9	3427	20	-6.9	-83
O=[N+]([O-])c1ccc(NCc2ccc3c(c2)OCO3)cc1	0	7	1	4608	3	-2.1	-47
Cc1nc2ccccc2c(=O)n1NC(=O)c1ccc(C(C)(C)C)cc1	12	1	-1	2907	2	3.2	-26
CCNc1nc2cccnc2s1	4	0	-3	3530	9	3.8	-12
Brc1ccc(-c2nnc(-c3ccccc3)o2)o1	11	14	-6	24191*	-12	4.6	-33
CCOc1ccc(-c2nnc3ccc(SCC(=O)N4CCCCC4)nn23)cc1	-1	4	1	5573	-4	-0.6	-6
O=C(CCC1CCCCC1)Nc1ccccc1-c1ccccc1	6	9	-3	21102*	-2	7.8	-12
COC(=O)C1=C(C(=O)OC)C2N(C)c3ccccc3[C@@]23CC(C(=O)OC)N(C(=O)COCc2ccccc2)C3=N1 (stereo partly specified)	8	-5	.	.	-2	2.4	.
Cc1ccc(C=NNC(=O)c2cccs2)s1	-9	-2	.	.	-8	7.4	.
COc1ccc(/C=C/C(=O)NCCOc2ccccc2OC)cc1	3	0	-9	2491	41	2.7	-9
COc1ccccc1S(=O)(=O)CC(O)COc1ccc(C#N)cc1 (stereo unspecified)	5	5	-10	4500	6	0.5	-14
CCOC(=O)c1cc(-c2ccc(Cl)s2)[nH]n1	12	11	-6	4799	12	17	-10
O=C(CSc1ccc(-c2cccnc2)nn1)Nc1ccc(F)cc1	3	15	6	5659	-3	1.2	-17
O=C1Nc2ccccc2C1(O)CC(=NO)c1ccccc1 (stereo unspecified)	2	1	.	.	2	-2.3	.
CC(=NCc1ccc2c(c1)OCO2)c1c(O)n(-c2ccccc2)c(=O)[nH]c1=O	-10	-9	8	4710	-2	0.2	-13
O=C(c1ccc(Cl)c(S(=O)(=O)Nc2ccccc2C(=O)N2CCc3ccccc3C2)c1)N1CCc2ccccc2C1	3	2	-2	1998	-13	18	-14
O=C(OC1CCOC1=O)c1ccc2ncsc2c1 (stereo unspecified)	4	6	6	9839	6	3.5	-5
Cc1ccc(C(=O)N2CCN=C2SCc2ccc([N+](=O)[O-])cc2)cc1C	20	21	-1	4801	-5	14	-15
CCN1CCN(c2ccc(S(=O)(=O)N3CCCCC3)cc2N)CC1	-18	-6	.	3969	4	2.4	-20
COc1cc2c(cc1/C=C/C(=O)O)OC(C)C2 (stereo unspecified)	14	12	-2	4657	1	7.2	-31
CC(=O)Nc1ccc(S(=O)(=O)Nc2nc3ccccc3nc2Nc2ccc(C(=O)O)c(O)c2)cc1	9	1	.	3079	4	6.1	-10
Cn1c(CCN2CCCCC2)nc2cc(NC(=O)COc3ccc([N+](=O)[O-])cc3)ccc21	8	1	7	4937	-6	3.2	-9
C/C(=N\NC(=O)c1ccccc1O)c1c(O)n(C2CCCCC2)c(=O)[nH]c1=O	7	-4	5	4364	-8	0.9	2
COc1ccc(CCN2CC(O)=C(c3nc(C)cs3)C2=N)cc1OC	-7	-1	-11	23439*	-10	0.0	-13
CCOC(=O)C1=C(NC(=S)NC(=O)c2ccccc2)c2ccccc2CC1(C)C	2	6	-4	3275	5	-2.2	-22
COc1ccc(N(C(=O)CS(=O)CC(=O)Nc2ccc(F)cc2)C(C(=O)NC2CCCCC2)c2cccs2)cc1 (stereo unspecified)	2	-7	11	2518	6	-0.2	-18
COC(=O)c1ccc(CSc2ncnc3c2nnn3-c2ccc(OC)cc2)o1	-1	-2	-9	2879	4	-12	-20
Cc1cccc(N(CC(=O)NC2CCCCC2)C(=O)CCCC(=O)Nc2ccccn2)c1	.	.	-1	4231	-6	-6.3	-15
COc1ccc(NC(=O)COC(=O)C2CCC2)cc1Cl	-8	-4	-5	6083	2	1.9	2
CC12CCC(C(=O)N(CCC#N)CCC#N)(CC1=O)C2(C)C (stereo unspecified)	-7	3	-15	20384*	-8	-3.9	-23
COc1ccc(-c2noc(-c3cc4ccccc4oc3=O)n2)cc1	-1	1	-11	.	0	-12	.
CCCCN(C(=O)c1ccc(-c2ccc([N+](=O)[O-])cc2)o1)c1c(N)n(CCCC)c(=O)[nH]c1=O	.	.	-6	6530	.	.	-7
c1ccc(CCNCCCOc2cccc3ccccc23)cc1	4	-2	2	3145	-16	-7.4	-9
CCc1ccc(CCC(=O)Nc2ccc(OC)cc2)o1	.	.	-1	3931	11	-4.8	-29
Cn1c(Cc2ccccc2)nnc1SCC(=O)c1cccs1	.	.	6	3234	2	2.7	-4
Cc1c(C(=O)N2CCC(C)CC2)cccc1[N+](=O)[O-]	20	17	-3	4846	5	9.3	-11
CN1CCN(c2nc3c(c(=O)n(C)c(=O)n3C)n2CC(N)=O)CC1	11	3	8	8753	2	4.0	-4
COc1cc(C=NNC(=O)c2ccccc2Cl)ccc1Oc1ccc([N+](=O)[O-])cn1	11	-13	.	.	12	2.3	.
Cc1ccc(-c2cc(C(=O)NN)n[nH]2)o1	0	-8	-1	4655	7	4.0	.
O=C(COC(=O)c1cc(=O)[nH]c2ccccc12)NCc1ccc(F)cc1	0	4	.	?	1	-1.8	.
Cc1c(S(=O)(=O)Nc2ccc(Oc3ccccc3)cc2)c(=O)n(C)c(=O)n1C	1	9	1	6107	5	-2.2	-16
COc1ccccc1NC(=O)CN1C(=O)NC(C)(C)C1=O	5	-3	5	10898	5	1.9	-21
Cc1cccc(CN2CCN(CC(=O)NCc3ccc(F)cc3)C2=O)c1	8	0	11	4132	8	1.0	0
CC(=O)Nc1ccc(C(=O)OCc2ccc(Cl)c(Cl)c2)cc1	6	-3	-26	2183	-6	5.0	-72
O=C(OCc1cc([N+](=O)[O-])cc2c1OCOC2)c1ccc2ccccc2n1	3	12	-29	4448	-7	1.4	-6
CN(CCc1ccccn1)C(=O)Nc1ccc(F)cc1	-7	2	11	2770	2	14	-4
CCN(CCNC(=O)C1CCCN(S(=O)(=O)CC)C1)c1ccccc1 (stereo unspecified)	6	2	0	2842	-2	-12	-24
COc1ccc(O)c(/C=N/NC(=O)CCC(=O)Nc2ccc(C)cc2)c1	.	.	-4	3019	.	.	-8
O=C1c2cccnc2C(O)N1Cc1ccc(F)cc1 (stereo unspecified)	1	4	0	23014*	-1	-0.7	-42
O=C(CN(Cc1ccccc1)C(=O)CSc1nnc(COc2ccccc2)o1)NC1CCCC1	.	.	-3	3548	2	-2.4	-8
Cn1cccc1-c1cc(C(=O)N/N=C/C=C/c2ccccc2)[nH]n1	.	.	8	3358	.	.	-9
O=C(Cc1c(F)cccc1Cl)Nc1ccccc1-c1ccccc1	-9	-13	0	3013	2	6.3	-2
CNc1nc(Nc2ccc(Br)cc2)nc(N)c1[N+](=O)[O-]	.	.	1	2003	.	.	-32
CN(CCO)c1ccc(C(C(=O)c2ccccc2)c2ccc(N(C)CCO)cc2)cc1	8	4	2	4116	-10	8.9	-14
CCOC(=O)c1c(NC(C)=O)sc2c(OCC(O)CN(CC)CC)c(Br)ccc12 (stereo unspecified)	12	8	2	3584	-2	-2.8	-10
COc1cccc2cc(-c3csc(CCn4nc(C)cc4C)n3)c(=O)oc12	.	.	2	3561	-1	1.9	-26
CCCCN(C(=O)CCC(=O)O)C1CC(=O)N(c2ccc(OCCC)cc2)C1=O (stereo unspecified)	0	15	5	?	4	12	-33
Carrying on:
SMILES	Mtb hypoxia rep	Mtb hypoxia rep growth	BJeLR viability	Autofluor counter	ugtP null kill	RN4220 kill	PrP UTR inh
COc1cc(OC)cc(-c2nnc(NC(=O)c3ccc4c(c3)OCCO4)o2)c1	2	-5	5	6273	-11	5.3	-4
COC(=O)c1ccc(-n2c(C)cc(C(=O)CSc3cccc[n+]3[O-])c2C)cc1	8	10	9	5312	3	4.1	-27
C(=N\Nc1ccc2ccccc2n1)/c1ccc2c(c1)OCO2	.	.	12	4224	.	.	16
O=C(NN=Cc1sc(=O)[nH]c1-[n+]1ccc2ccccc2c1)c1ccccc1[O-]	-2	-10	.	.	4	3.9	.
Fc1ccccc1CSc1nnc(-c2ccccc2)o1	.	.	-6	4228	6	6.6	-103
O=[N+]([O-])c1ccccc1N/N=C/c1cccc(O)c1O	.	.	8	3619	.	.	-20
Cc1cc(NC(=O)CSc2nnc(-c3ccoc3C)n2N)no1	5	7	5	6122	3	3.0	-6
CCOC(=O)C(CC)Sc1nc(N)c(NC(=O)c2ccc(OC)c(OC)c2)c(=O)[nH]1 (stereo unspecified)	-8	-4	3	5324	2	-1.7	-5
O=C(CSc1nc2ccccc2c(=O)n1CCCN1CCOCC1)Nc1ccc(F)c(Cl)c1	17	2	.	5445	1	16	0
O=C(Nc1cc(-c2nc3ccccc3s2)ccc1Cl)c1ccc2c(c1)OCO2	8	16	15	10004	7	-0.2	-14
CC(C)NC(=O)c1onc(CSc2ccc(Cl)cc2)c1C(=O)O	-3	2	-7	3753	-1	9.2	-11
Cc1ccccc1-n1sc2cc(F)ccc2c1=O	0	10	.	4686	75	79	6
Cc1sc2ncnc(SCC(=O)Nc3cccc(S(N)(=O)=O)c3)c2c1C	10	12	.	3583	9	-3.1	-6
Fc1ccccc1N1CCN(c2nc(-c3cccs3)nc3ccccc23)CC1	0	4	-1	4621	62	62	-19
CC1(OC(=O)C2CCCC2)C(=O)C=C2C=C(c3ccsc3)N(CC3CC3)C=C2C1=O (stereo unspecified)	14	-2	13	2639	1	8.1	4

Ordered by formula weight (highest first): part of the list above.
SMILES	Mtb hypoxia rep	Mtb hypoxia rep growth	BJeLR viability	Autofluor counter	ugtP null kill	RN4220 kill	PrP UTR inh
CC1(OC(=O)C2CCCC2)C(=O)C=C2C=C(c3ccsc3)N(CC3CC3)C=C2C1=O (stereo unspecified)	14	-2	13	2639	1	8.1	4
Cc1cc(NC(=O)CSc2nnc(-c3ccoc3C)n2N)no1	5	7	5	6122	3	3.0	-6
Fc1ccccc1CSc1nnc(-c2ccccc2)o1	.	.	-6	4228	6	6.6	-103

The listing continues:
SMILES	Mtb hypoxia rep	Mtb hypoxia rep growth	BJeLR viability	Autofluor counter	ugtP null kill	RN4220 kill	PrP UTR inh
CCOCC(=O)Nc1cc(C(=O)NCCc2ccccc2)ccc1Cl	7	-1	-3	4644	0	11	22
Cc1cc(C)cc(NC(=O)COc2ccc3c(C)c(Cc4ccccc4)c(=O)oc3c2)c1	1	7	-9	.	-14	-1.5	.
COC(=O)[C@]1(Cc2ccccc2)N[C@H](CN(C)S(=O)(=O)c2ccc(C(F)(F)F)cc2)[C@@H]2C(=O)N(Cc3ccccc3)C(=O)[C@@H]21	-7	5	.	4511	-10	2.5	-17
COCCNC(=O)C1(C)Oc2ccccc2NC1=O (stereo unspecified)	.	.	-12	2865	2	1.5	-20
COc1ccc(N2CCN(C(=O)CNC(=O)c3ccc4ccccc4c3)CC2)cc1	4	0	.	7962	-2	2.8	-20
Cc1ccc(N2C(=O)c3ccc(C(=O)N4CCN(c5cccc(C)c5C)CC4)cc3C2=O)cc1	-4	9	6	5711	-11	1.9	-17
CC(C)CNC(=O)C1CCCN1S(=O)(=O)c1ccc(Cl)cc1 (stereo unspecified)	13	6	8	7622	10	3.4	-5
CC(C)(C)c1ccc(C(=O)NCC(=O)N/N=C/c2cccnc2)cc1	.	.	-1	3945	.	.	-27
CC(C)CCNC(=S)Nc1ccc(F)cc1	.	.	-6	3917	7	-1.9	-12
COc1ccc2nc(SCC(=O)NCCc3ccccc3)[nH]c2c1	7	5	4	3159	13	3.0	-26

In another format: entries from further up
Order of values: Mtb hypoxia rep, Mtb hypoxia rep growth, BJeLR viability, Autofluor counter, ugtP null kill, RN4220 kill, PrP UTR inh
> CCOCC(=O)Nc1cc(C(=O)NCCc2ccccc2)ccc1Cl
→ 7, -1, -3, 4644, 0, 11, 22
> CCN(CCNC(=O)C1CCCN(S(=O)(=O)CC)C1)c1ccccc1 (stereo unspecified)
→ 6, 2, 0, 2842, -2, -12, -24
> COc1ccc(/C=C/C(=O)NCCOc2ccccc2OC)cc1
→ 3, 0, -9, 2491, 41, 2.7, -9
